Compound activity: PubChem BioAssay, several laboratories
AF4-AF9 inh: inhibitors of AF4 peptide binding to AF9, primary screen, biochemical, AlphaScreen, biotin-AF4 peptide, FLAG-AF9, single point. AID 651704, 2012. 350,000 tested, 0.47% active. Protein AF-9 (Homo sapiens), P42568. inhibition, % at 10 µM;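 active means every replicate reaching a set inhibition limit, whatever the replicate mean, cut at about 25% in these data; inconclusive means mean inhibition reaches that limit but some replicates miss it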;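 further: 0% = plate neutral control median and 100% = total signal loss; the record names both 10 and 1 µM as test concentration; the first replicate is given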
UCH37 inh: inhibitors of human UCH37 deubiquitinase, primary screen, biochemical, Ub-AMC cleavage, fluorescence; purified proteasome/UCH37; inhibition, % (test concentration not listed); 330,000 tested, 0.33% active;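 active means mean of two replicates above 20%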;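 further: 0% = compound-free wells with enzyme and 100% = wells lacking proteasome; stock transfer was 100 nL into about 20 µL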
Target sequence (Q9Y5K5 whole entry, looked up): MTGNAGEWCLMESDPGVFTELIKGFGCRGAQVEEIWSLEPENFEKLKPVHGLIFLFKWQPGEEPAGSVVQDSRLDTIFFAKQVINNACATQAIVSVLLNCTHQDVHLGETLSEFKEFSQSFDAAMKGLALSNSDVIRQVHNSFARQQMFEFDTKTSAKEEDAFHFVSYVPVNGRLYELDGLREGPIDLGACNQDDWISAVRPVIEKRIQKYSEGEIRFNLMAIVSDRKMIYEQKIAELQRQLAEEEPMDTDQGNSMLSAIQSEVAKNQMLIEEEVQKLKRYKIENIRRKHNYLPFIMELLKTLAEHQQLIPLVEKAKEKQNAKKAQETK
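Material: human UCH37 enzyme supplied as purified proteasome complex. Measure: % inhibition of Ub-AMC cleavage fluorescence. Medium: pH 7.4 Tris-HCl (50 mM) with ovalbumin, ATP-MgCl2, DTT. Times: 30 min preincubation with enzyme, 25 min cleavage at room temperature. Detection: AMC fluorescence intensity at 355/460 nm.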
E coli growth: E. coli growth inhibition, primary screen, OD600; Escherichia coli growth, 23 h; stronger effect = lower value; OD600 absorbance (concentration not given with the values); 330,000 tested, 0.21% active; AID 1053175, 2014;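 active means OD600 absorbance below the run mean of sample wells minus 3.6 SD, in any replicate, cut at about 0.56 in these data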;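 further: stock transfer was 300 nL into about 60 µL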
FGF22 binding: binders of human FGF22 protein, primary screen, FGF22 synaptogenesis inhibitor project, biophysical, thermal shift, single point; recombinant FGF22 thermal shift, SYPRO orange fluorescence; percent of sucrose octasulfate shift, DMSO zero; calls only at 9.99 µM; 340,000 tested, 1.5% active;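 active means melting point raised past a set limit in the mean and every replicate; inconclusive means no clear call; three in four hits are not shown here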
Target sequence (Q9HCT0 whole entry, looked up): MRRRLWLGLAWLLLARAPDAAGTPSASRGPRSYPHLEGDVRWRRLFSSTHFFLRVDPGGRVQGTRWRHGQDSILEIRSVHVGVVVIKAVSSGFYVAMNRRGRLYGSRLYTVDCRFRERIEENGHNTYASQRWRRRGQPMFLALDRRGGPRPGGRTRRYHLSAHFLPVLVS
HNF4A DNA FP: change in binding of human HNF4A to DNA, primary screen, biochemical, fluorescence polarization, FITC-DNA. AID 1224865, 2016. 1 h. 360,000 tested, 0.3% active. activity change, % at 10 µM; in the data active means activity change above about 30%, passing the limit was not always enough;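 further: controls were the assay level and a saturating level of protein; the project sought stronger binding though the title names inhibitors; some compounds called inactive have numbers as strong as hits; positive values seem to mean higher polarization but the record does not say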
Target sequence (P41235 whole entry, looked up): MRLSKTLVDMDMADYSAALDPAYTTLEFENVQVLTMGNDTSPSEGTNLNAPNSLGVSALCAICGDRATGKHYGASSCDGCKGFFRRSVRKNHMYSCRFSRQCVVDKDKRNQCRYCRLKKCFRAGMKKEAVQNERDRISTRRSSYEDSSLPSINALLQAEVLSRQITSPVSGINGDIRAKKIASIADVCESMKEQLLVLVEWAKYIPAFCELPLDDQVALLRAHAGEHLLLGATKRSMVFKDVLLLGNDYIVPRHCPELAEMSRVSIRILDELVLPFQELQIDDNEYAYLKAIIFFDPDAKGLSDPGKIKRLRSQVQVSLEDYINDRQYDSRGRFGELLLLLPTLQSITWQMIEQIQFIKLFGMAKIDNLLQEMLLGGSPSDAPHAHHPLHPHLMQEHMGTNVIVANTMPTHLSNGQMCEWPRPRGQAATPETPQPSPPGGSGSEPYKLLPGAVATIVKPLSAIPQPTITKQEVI
Vif A3G: inhibitors of Vif binding to APOBEC3G peptide, primary screen, biochemical, TR-FRET, GST-Vif 1-94, biotin-A3G peptide, dose response retest (AID 1117319). Virion infectivity factor (Human immunodeficiency virus type 1 group M subtype B (isolate …. TR-FRET GST-Vif / biotin-A3G peptide binding; higher % means a stronger effect; test concentration not given here; strong numbers were not always called active. inhibition, %, or IC50 in µM where a hit was titrated. 260,000 tested, 0.57% active;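 active means above the screen mean plus three standard deviations and confirmed in dose response; inconclusive means results disagree or hit not tested in dose response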;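 further: Vif residues 1-94 fused to GST binding biotinylated APOBEC3G peptide 110-148; 0% = full assay without inhibitor and 100% = GST in place of GST-Vif; retest series ran down from 100 µM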
RanGTP-Impb inh: inhibitors of RanGTP-importin-beta interaction, primary screen, biochemical, FRET, CFP-Ran, YFP-importin-beta, homogeneous | AID 2216, 2009 | Ran GTPase (GTP-bound) - importin-beta complex | cell-free CFP-Ran/YFP-importin-beta FRET ratio | 300,000 tested, 1.1% active | inhibition, % (no concentration beside the values);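 active means most replicates above 15%; inconclusive means exactly half above 15%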;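 further: 0% = DMSO wells and 100% = Ran loaded with GDP instead of GTP; wells of about 40 µL received 100 nL stock; the first replicate is given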
Starred values were filed as active, the others as inactive; i = inactive; u = inconclusive; x = no result given; & = joins results of further samples.

smiles	Vif A3G	AF4-AF9 inh	UCH37 inh	HNF4A DNA FP	RanGTP-Impb inh	E coli growth	FGF22 binding
Cc1nc(SCC(=O)NC(=O)NC2CCCCC2)nc(C)c1C	-10%	-4.0	1.8	4.7	2.4	0.69	i
COc1ccc(N(CC(=O)Nc2cc([N+](=O)[O-])ccc2C)S(C)(=O)=O)cc1OC	1%	3.6	4.5	-1.1	1.5	0.67	i
COc1cc(/C=N/NC(=O)CNC(=O)c2cccs2)ccc1O	12%	-0.4	x	-1.0	4.6	x	i
Cc1cccc(C)c1NC(=O)NN(C(=O)c1ccccc1)C(C)(C)C	x	6.8	2.9	-2.3	-1.5	0.67	i
CCCn1c(SCC(=O)Nc2cccc(F)c2)nc(O)cc1=O	1%	-6.9	6.0	1.3	x	0.68	i
Cc1nnc2ccc(-c3ccc(NS(=O)(=O)c4ccccc4F)cc3)nn12	2%	-0.8	3.7	2.3	6.5	0.69	i
CCOC(=O)c1ccccc1NC(=O)Cn1cnc2c(nnn2-c2ccc(C)cc2)c1=O	1%	-8.5	1.5&1.6	-1.0	0.8	0.67&0.74	i
CCc1ccc2nc3sc(C(=O)Nc4nnc(CC)s4)c(N)c3cc2c1	2%	-45	3.7	45*	3.0	0.71	i
Cc1ccc(CC(NC(=O)c2ccccc2)C(=O)NCC(=O)O)cc1 (stereo not given)	6%	x	2.6	-2.2	1.9	0.73	x
CC(=O)Nc1ccc(S(=O)(=O)N2CCSC2c2ccco2)cc1 (stereo not given)	-7%	8.7	-1.0	3.6	0.6	0.71	i
Cc1ccc(S(=O)(=O)/N=C(/Nc2ccccc2C)c2ccccc2)cc1	-6%	2.1	-0.1	-1.8	x	0.7	i
O=S(=O)(Nc1ccc(-c2ccc3nncn3n2)cc1)c1cc(F)ccc1F	-4%	1.1	6.2	-1.8	-2.1	0.7	x
Cc1cc(C)cc(-n2c(C)cc(/C=N\NC(=O)COc3cccc4cccnc34)c2C)c1	28%	1.6	x	6.2	0.7	x	i
Cc1cc(C)c2c3c(sc2n1)C(=O)N(C)CC(=O)N3	-3%	x	1.1	1.7	6.4	0.71	x
Cc1ccc(S(=O)(=O)N2C[C@@H]3c4ccccc4N(S(=O)(=O)c4ccc(C)cc4)[C@@H]3[C@@H](C)C2CC(=O)c2ccccc2)cc1 (stereo not given in full)	0%	-2.4	0.6	-0.5	x	0.69	i
Cc1nc2c(Cl)cc(Cl)cc2[nH]1	-3%	x	0.9	-0.5	-5.2	0.67	x
COc1ccc(N(C)C(=O)CCS(=O)(=O)c2cccc3nonc23)c(OC)c1	1%	x	3.4	2.5	-1.1	0.73	x
Nc1nc(CSc2n[nH]c(-c3ccccc3)n2)nc(Nc2ccccc2)n1	-6%	x	0.5	-1.4	u	0.67	x
O=C(COc1ccc(Cl)cc1)N1CCN(C(=O)c2ccccc2F)CC1	x	-2.5	-0.7	0.6	-0.9	0.68	i
CCCc1nc2ccccc2c(C(=O)OCC(=O)NCc2ccco2)c1CC	6%	x	1.1	-0.4	-2.5	0.68	x
CCc1ccc(OCC(=O)Nc2ncc3c(n2)CC(C)(C)CC3=O)cc1	0%	x	0.5	1.9	0.8	0.64	x
O=C1NC(=S)SC1=Cc1cc(Br)ccc1O	-4%	-0.3	8.6	80*	x	0.67	i
COc1ccc(/C=C2/CCCC(C(=O)C(F)(F)F)=C2O)cc1OC	-4%	-0.5	3.5	4.5	2.0	0.67	i
CCOc1ccc(/C=N/n2nnnc2N)cc1OCC	-6%	1.1	x	-2.4	-2.3	x	i
CCc1nn2c(N3CCOCC3)cc(C)nc2c1-c1ccccc1	0%	-0.7	-65	-3.9	-1.9	0.66	i
CCC(C)Nc1nc(OCC(F)(F)F)nc(OCC(F)(F)F)n1 (stereo not given)	-3%	x	-0.7	-2.6	-1.3	0.67	x
Cc1cc(C)c(C)c(S(=O)(=O)N2C(=S)NC(=O)C2CC(C)C)c1C (stereo not given)	25%	x	2.2	0.4	7.4	0.73	x
Cc1ccn2c(/C=N/OCc3ccc(F)cc3)c(-c3ccc(Cl)cc3)nc2c1	-1%	x	x	-5.5	8.6	x	x
CSC12CCCN(CCC(C(C)(C)C)C1)C2=O (stereo not given)	x	-1.8	x	-1.2	x	x	i
Cc1cc(NC(=O)COC(=O)CC2CCCC2)c([N+](=O)[O-])cc1C	-7%	4.3	2.6	-1.8	0.9	0.7	i

Exported with two lines to a compound: part of the list above.
Fields – Vif A3G	AF4-AF9 inh	UCH37 inh	HNF4A DNA FP	RanGTP-Impb inh	E coli growth	FGF22 binding
Cc1nnc2ccc(-c3ccc(NS(=O)(=O)c4ccccc4F)cc3)nn12
  2%	-0.8	3.7	2.3	6.5	0.69	i
CCOC(=O)c1ccccc1NC(=O)Cn1cnc2c(nnn2-c2ccc(C)cc2)c1=O
  1%	-8.5	1.5&1.6	-1.0	0.8	0.67&0.74	i

The list goes on:
smiles	Vif A3G	AF4-AF9 inh	UCH37 inh	HNF4A DNA FP	RanGTP-Impb inh	E coli growth	FGF22 binding
Cc1ccc(-n2cc(CN3CCC(CO)(Cc4ccccc4)CC3)cn2)cc1	-8%	1.7	7.7	x	4.2	0.67	i
COC(=O)c1ccc(C2C(Oc3ccccc3)C(=O)N2CCc2ccc(OC)c(OC)c2)cc1 (stereo not given)	4%	x	2.2	-1.1	-3.4	0.71	x
N#Cc1c(-c2ccc(F)cc2)cc(-c2cccs2)nc1SCC(=O)O	-3%	-0.8	-61	-0.2	1.9	0.66	i
COC(=O)C[C@H]1CC[C@@H](NS(=O)(=O)c2ccc(C)cc2)[C@@H](CO)O1	x	-13	x	-3.9	x	x	i
COc1ccc(NC(=O)C[C@H]2C(=O)N(Cc3ccccc3)C[C@@H]2c2ccc(OC)cc2)cc1	3%	-2.3	x	-0.4	x	x	i
O=C(Cn1nnc2ccccc21)c1ccccc1	3%	-1.4	4.9	-0.5	-2.9	0.65	i
CCc1ccccc1N(CC(=O)N1CCN(c2ccccc2F)CC1)S(C)(=O)=O	-6%	x	0.9	3.3	-9.1	0.68	x
N#Cc1ccc(C(=O)N2CCN(c3ncccn3)CC2)cc1	-3%	-1.8	-1.2	2.8	u	0.69	i
CC(c1ccc2c(c1)OCO2)n1c(=S)[nH]c2ccccc2c1=O (stereo not given)	x	4.1	1.8	1.4	x	0.68	i
c1ccc2c(-c3cc(NCc4ccncc4)n4nccc4n3)cccc2c1	x	-1.7	x	2.7	x	x	i
CCOC(=O)C1=C(C)N(c2ccccc2)C(=O)C1CC(=O)O (stereo not given)	0%	x	-2.5	-0.8	-3.9	0.73	x
Cc1ccnc(NC(=O)CCC(=O)c2cc(C)sc2C)c1	-4%	-20	-3.5	21	-7.4	0.63	i
Cc1ccc(S(=O)(=O)NCCc2ccc(S(N)(=O)=O)cc2)cc1	-4%	x	4.1	2.4	0.9	0.71	x
Cc1nc(-c2cc(-c3nc(-c4cc(C(F)(F)F)cc(C(F)(F)F)c4)no3)no2)cs1	-5%	-3.3	2.8	2.2	2.1	0.66	i
Cc1noc(C)c1CSCC(=O)Oc1ccc(N(C)S(=O)(=O)c2ccccc2)cc1	4%	0.7	4.2	-1.5	-13	0.68	i
Cc1nnc(SCCn2c(N3CCC(C)CC3)nc3c2c(=O)[nH]c(=O)n3C)s1	1%	x	2.7	-1.3	u	0.7	x
c1ccc(Oc2cccc(NC3=NCCC3)c2)cc1	u	x	0.7	0.6	-2.1	0.7	x
Cc1cc(=O)c2cccc(Br)c2[nH]1	-3%	x	0.9	3.8	u	0.67	x
Nc1nc(Br)c2ccccc2c1-c1ccccc1	0%	-1.0	-44	-6.2	-0.7	0.67	i
COc1ccc(C(=O)OCC(=O)NCCN2C(=O)CSC2=O)cc1[N+](=O)[O-]	2%	-5.3	3.6	-0.1	x	0.64	i
O=C(O)C1CC(=O)N(C2CCCCC2)C1c1ccccc1 (stereo not given)	0%	x	0.6	2.4	-0.2	0.72	x
COc1cccc(C(c2c(NC(=O)c3ccco3)sc(C)c2C)N2CCOCC2)c1 (stereo not given)	x	3.8	-1.6	-1.1	x	0.69	i
O=C(CSc1ncccn1)N1CCN(C(c2ccccc2)c2ccccc2)CC1	-2%	x	2.6	-1.6	-3.3	0.72	x
COc1cccc(-c2ccc(SCC(=O)c3ccccc3)nn2)c1	-12%	-4.4	5.0	-0.6	25	0.7	i
COc1ccc(S(=O)(=O)N2CC(O)CC2C(=O)OCC(=O)Nc2ccc(Cl)cn2)cc1 (stereo not given)	u	x	1.2	2.8	-3.7	0.76	x
O=C(COc1ccc([N+](=O)[O-])cc1)Nc1cccnc1	14%	-1.2	2.5	-2.0	-4.7	0.71	i
COc1ccc(/C=N\NC(=O)COc2ccccc2Cl)cc1Cn1nc(C)cc1C	-4%	x	x	2.1	-4.6	x	x
CCn1cc(C(=O)NCc2ccco2)c(=O)c2cc(S(=O)(=O)N3CCCCCC3)ccc21	-9%	x	4.8	4.2	5.9	0.65	x
COc1ccc(C(=O)C2CCCN(Cc3cn[nH]c3-c3ccccc3)C2)cc1OC (stereo not given)	x	1.9	-1.1	-2.0	2.4	0.68	i
COc1ccc(-n2nccc2-c2nn(-c3cccc(OC)c3)c(=O)n(C)c2=O)cc1	u	x	x	-1.5	3.5	0.72	x
Cc1sc2nc(-c3ccccc3)[nH]c(=O)c2c1-c1ccccc1	-7%	x	-156	x	2.4	0.73	x
O=C1CCC(C(=O)Nc2cc(C(F)(F)F)ccc2-n2cncn2)=NN1	1%	0.5	4.4	-4.2	5.3	0.69	i
COc1cc(C(=O)NCC(=O)N/N=C/c2ccc(-c3cccc([N+](=O)[O-])c3)o2)cc(OC)c1OC	x	1.1	x	0.7	-1.2	x	i
COc1ccc(/C=N/NC(=O)c2ccc(O)cc2)cc1CN1CCCc2ccccc21	-2%	x	x	4.6	-6.5	x	x
Cn1c(-c2ccc(-c3ccccc3)cc2)c[nH]c1=S	5%	x	-13	-0.2	0.5	0.74	x
Cc1nc2sc(C(c3ccccc3)N3CCN(C)CC3)c(O)n2n1 (stereo not given)	x	-12	3.0	2.7	5.2	0.72	i
CCN1C(=O)[C@H]2[C@@H](c3ccc(-c4ccc(OC)cc4)cc3)N3CCCC[C@@]3(C(=O)OC)[C@H]2C1=O	x	0.9	0.9	7.1	-3.7	x	i
CC(C)C(C(=O)Nc1ncn[nH]1)N1C(=O)c2ccccc2C1=O (stereo not given)	-1%	x	4.0	1.2	0.4	0.71	x
CCN(C(=O)COC(=O)/C=C/c1cccc(Cl)c1)c1c(N)n(Cc2ccccc2)c(=O)[nH]c1=O	-3%	0.7	0.7	1.0	x	0.7	i
O=C(NN1CCN(Cc2ccccc2)CC1)c1ccc(Cl)cc1	-3%	0.4	0.4	4.8	-1.2	0.68	i
CCOC(=O)Cc1csc(SCC(=O)Nc2nccs2)n1	0%	-1.0	5.4	2.6	2.4	0.7	i
Clc1ccc(-c2nnc(-c3ccco3)nc2N2CCCCC2)cc1	23%	4.1	2.5	-5.5	2.2	0.73	i
FC(F)(F)c1nc(-c2cccnc2)ncc1-c1nnnn1-c1ccccc1	-6%	x	3.2	2.6	-0.2	0.72	x
CN(C)S(=O)(=O)c1cccc(NC(=O)COC(=O)c2c[nH]c(=O)[nH]c2=O)c1	13%	3.0	-0.7	0.6	3.9	0.67	i

An excerpt, so the mix of outcomes need not match the whole.
